# Source: PubChem BioAssay (Broad Institute)
# Vaccinia stage = Vaccinia orthopox stage-specific inhibition; Vaccinia-infected cells, mCherry/Venus stage reporter fluorescence; stronger effect = lower value; some inactives read as strong as hits; AID 1053133; 89,000 tested, 0.01% active; activity change (mCherry), % (no concentration beside the values);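 active = mCherry past -33% and 40 or more points under the early reporter, replicates agreeing; inconclusive = past -33% without that gap or agreement; tested in A549 cells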;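 note: scaled between vehicle wells and reference inhibitor wells; 23 nL library stock went into each well; one replicate is shown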
# Vaccinia stage Venus = recorded beside Vaccinia stage, whose call it bears; activity change (Venus), %; measured here: Venus reporter, other viral stage;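 negative = less Venus signal; first of two replicates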
# Starred values were filed as active, the others as inactive; ? = inconclusive; . = not tested or not shown; & = joins results of further samples. Some of the compounds tested. The share of hits here may be higher or lower than overall.
entry	mol	Vaccinia stage Venus	Vaccinia stage
1	CCN1[C@@H]2c3ccc(-c4ccccc4F)c(=O)n3C[C@H]1[C@H](CO)[C@H]2C(=O)NCc1ccc(F)cc1	3	9
2	O=C1CN(S(=O)(=O)Cc2ccccc2)C[C@H]2[C@@H](c3ccc(C#Cc4cccnc4)cc3)[C@H](CO)N12	-16	-22
3	C[C@@H]1CCCCO[C@@H](CN(C)C)[C@H](C)CN([C@H](C)CO)C(=O)c2cc(NC(=O)Nc3cccc4ccccc34)ccc2O1	1	-14
4	C[C@H](CO)N1C[C@H](C)[C@@H](CN(C)C(=O)c2ccccc2)OCCCC[C@H](C)Oc2ccc(NC(=O)NC3CCCCC3)cc2C1=O	1	3
5	O=C1CNC[C@@H]2[C@H](c3ccc(C#CC4CCCCC4)cc3)[C@@H](CO)N12	3	5
6	CN1C(=O)c2cc(NS(=O)(=O)c3cccc(F)c3)ccc2OC[C@@H]2O[C@@H](CC(=O)O)CC[C@@H]21	5	12
7	C[C@H]1CN([C@@H](C)CO)C(=O)Cc2cc(NC(=O)Nc3ccc(C(F)(F)F)cc3)ccc2O[C@@H]1CN(C)S(C)(=O)=O	-2	-3
8	C[C@@H]1CN([C@H](C)CO)C(=O)c2cccc(NS(=O)(=O)c3ccc(Cl)cc3)c2O[C@@H]1CN(C)C(=O)Nc1ccc(C(F)(F)F)cc1	.	?
9	C[C@H]1CN([C@@H](C)CO)C(=O)Cc2cc(NS(=O)(=O)c3cccs3)ccc2O[C@H]1CN(C)Cc1ccc(C(F)(F)F)cc1	-5	5
10	C[C@H](CO)N1C[C@H](C)[C@@H](CN(C)S(=O)(=O)c2ccc(F)cc2)Oc2ccc(NC(=O)CCCCCC(=O)Nc3ccccc3N)cc2CC1=O	2	7
11	COC(=O)[C@H]1[C@H](CO)[C@H]2Cn3c(cccc3=O)[C@@H]1N2C(=O)C1CCCC1	4	5
12	C[C@@H]1CN([C@H](C)CO)C(=O)c2cc(NC(=O)C3CCCCC3)ccc2O[C@H]1CN(C)S(=O)(=O)c1ccccc1	0	2
13	CC(C)NC(=O)N[C@H]1CC[C@H](CCNS(=O)(=O)c2ccc(Cl)cc2)O[C@@H]1CO	12	13
14	O=C(C[C@H]1CC[C@H]2[C@@H](COC[C@H](O)CN2C(=O)Nc2ccc(Cl)c(Cl)c2)O1)NCc1ccc(Cl)cc1	.	?
15	O=C(C[C@H]1C[C@@H]2c3cc(NC(=O)c4ccc5c(c4)OCO5)ccc3O[C@@H]2[C@H](CO)O1)NCCN1CCCCC1	25	22
16	COc1ccc(NC(=O)Nc2cccc3c2O[C@H](CN(C)C(=O)Nc2ccc(OC)cc2)[C@H](C)CN([C@@H](C)CO)C3=O)cc1	1	-9
17	Cc1ccccc1-c1ccc([C@@H]2[C@@H](CO)N3C(=O)CN(S(C)(=O)=O)C[C@@H]23)cc1	-4	-7
18	CCCNC(=O)N1[C@H](CO)[C@H](c2ccccc2)[C@H]1CNC(=O)C1CC1	14	12
19	C[C@@H]1CN([C@@H](C)CO)C(=O)Cc2cc(NC(=O)Cc3cn(C)c4ccccc34)ccc2O[C@@H]1CN(C)Cc1ccncc1	8	8
20	COc1cccc(NC(=O)N[C@@H]2CC[C@H](CC(=O)NCc3ccncn3)O[C@H]2CO)c1	0	-1
21	C[C@@H]1CN([C@@H](C)CO)C(=O)Cc2cc(NS(=O)(=O)c3cn(C)cn3)ccc2O[C@@H]1CN(C)S(=O)(=O)c1ccccc1	15	15
22	COCCCNC(=O)[C@@]1(CCS(=O)(=O)c2ccccc2)COC(c2ccc(OCCCO)cc2)=N1	12	3
23	O=C(c1cccc(F)c1)N1CC(=O)N2[C@@H](CO)[C@H](c3ccc(C4=CCCCC4)cc3)[C@@H]2C1	11	10
24	O=C(C[C@@H]1C=C[C@H](NC(=O)C2CCOCC2)[C@@H](CO)O1)NCC1CCCCC1	1	-1
25	CO[C@H]1CN(C)C(=O)c2ccc(NC(C)=O)cc2OC[C@H](C)N(C(=O)Cc2ccccn2)C[C@H]1C	-20	-12
26	C[C@@H]1CCCCO[C@@H](CN(C)CC2CCCCC2)[C@H](C)CN([C@@H](C)CO)C(=O)c2cc(NS(=O)(=O)c3ccccc3)ccc2O1	-10	-12
27	Cc1ccc(S(=O)(=O)Nc2ccc3c(c2)CC(=O)N([C@@H](C)CO)C[C@@H](C)[C@H](CN(C)C(=O)NC2CCCCC2)O3)cc1	-7	-19
28	C[C@@H]1CN([C@@H](C)CO)S(=O)(=O)c2ccc(-c3ccc(C#N)cc3)cc2O[C@H]1CN(C)C(=O)C1CC1	-6	3
29	C[C@H](CO)N1C[C@H](C)[C@H](CN(C)C(=O)NC2CCCCC2)Oc2ccc(N(C)C)cc2CC1=O	16	7
30	CN1CCN(C(=O)C[C@@H]2CC[C@@H]3[C@H](COC[C@H](O)CN3C(=O)C3CCCC3)O2)CC1	22	24
31	C[C@@H]1CN([C@H](C)CO)C(=O)c2cc(/C=C/c3ccccc3)cnc2O[C@H]1CN(C)C(=O)C1CCOCC1	14	21
32	COc1ccc(C#Cc2ccc([C@H]3[C@H](CO)N4C(=O)CN(C(=O)NC(C)C)C[C@@H]34)cc2)cc1	3	-3
33	C[C@@H]1CN([C@H](C)CO)C(=O)CCCn2cc(nn2)CO[C@@H]1CN(C)Cc1ccc(C(=O)Nc2ccccc2N)cc1	4	6
34	C[C@H](CO)N1C[C@H](C)[C@H](CN(C)C(=O)c2ccncc2)OCc2ccccc2-c2ccccc2C1=O	1	11
35	O=C(c1ccc2c(c1)OCO2)N1C[C@H]2[C@@H](c3ccccc31)[C@@H](CO)N2Cc1ccccc1Cl	0	2
36	C[C@H](CO)N1C[C@H](C)[C@H](CN(C)C(=O)NC2CCCC2)Oc2ncc(-c3cc4ccccc4o3)cc2C1=O	-10	-12
37	C[C@@H]1CN([C@@H](C)CO)C(=O)c2c(c3ccccc3n2C)-c2ccccc2CO[C@H]1CN(C)C(=O)Nc1ccccc1C(F)(F)F	.	?
38	CN1[C@@H]2c3ccc(-c4ccncc4)c(=O)n3C[C@@H]2[C@@H](CO)[C@@H]1C(=O)NC1Cc2ccccc2C1	12	13
39	COCCNC(=O)C[C@H]1C[C@H]2c3cc(NC(=O)Cc4ccncc4)ccc3O[C@H]2[C@H](CO)O1	8	2
40	Cc1ccc(S(=O)(=O)Nc2ccc3c(c2)C(=O)N([C@@H](C)CO)C[C@H](C)[C@@H](CN(C)C(=O)Cc2ccccc2)OCCCC[C@@H](C)O3)cc1	.	?
41	C[C@H](CO)N1C[C@H](C)[C@H](CN(C)Cc2ccc(Oc3ccccc3)cc2)Oc2ccc(NC(=O)Cc3ccccc3)cc2C1=O	2	-7
42	O=C(C[C@H]1C=C[C@H](NC(=O)Nc2cccc(F)c2)[C@@H](CO)O1)NCC1CC1	-6	-6
43	COc1ccc(S(=O)(=O)N(C)C[C@@H]2Oc3c(NC(=O)NC(C)C)cccc3C(=O)N([C@H](C)CO)C[C@H]2C)cc1	-5	4
44	C[C@@H]1CCCCO[C@@H](CN(C)S(=O)(=O)c2ccc(F)cc2)[C@H](C)CN([C@H](C)CO)C(=O)c2cc(NS(=O)(=O)c3ccc(Cl)cc3)ccc2O1	.	?
45	O=C(C[C@@H]1CC[C@H](NC(=O)c2ccccc2)[C@H](CO)O1)NCc1ccc(Oc2ccccc2)cc1	-12	-18
46	C/C=C/c1cnc2c(c1)C(=O)N([C@H](C)CO)C[C@@H](C)[C@H](CN(C)C(=O)c1cccnc1)O2	10	15
47	C[C@H](CO)N1C[C@H](C)[C@@H](CN(C)C(=O)Cc2ccccn2)Oc2cc(-c3ccc(C(=O)N(C)C)cc3)ccc2S1(=O)=O	13	10
48	CCCNC(=O)N1CC2(C1)[C@H](c1ccccc1)[C@@H](CO)N2Cc1ccccn1	2	0

# The closing six compounds of the section before come first, to join the parts:
entry	mol	Vaccinia stage Venus	Vaccinia stage
43	COc1ccc(S(=O)(=O)N(C)C[C@@H]2Oc3c(NC(=O)NC(C)C)cccc3C(=O)N([C@H](C)CO)C[C@H]2C)cc1	-5	4
44	C[C@@H]1CCCCO[C@@H](CN(C)S(=O)(=O)c2ccc(F)cc2)[C@H](C)CN([C@H](C)CO)C(=O)c2cc(NS(=O)(=O)c3ccc(Cl)cc3)ccc2O1	.	?
45	O=C(C[C@@H]1CC[C@H](NC(=O)c2ccccc2)[C@H](CO)O1)NCc1ccc(Oc2ccccc2)cc1	-12	-18
46	C/C=C/c1cnc2c(c1)C(=O)N([C@H](C)CO)C[C@@H](C)[C@H](CN(C)C(=O)c1cccnc1)O2	10	15
47	C[C@H](CO)N1C[C@H](C)[C@@H](CN(C)C(=O)Cc2ccccn2)Oc2cc(-c3ccc(C(=O)N(C)C)cc3)ccc2S1(=O)=O	13	10
48	CCCNC(=O)N1CC2(C1)[C@H](c1ccccc1)[C@@H](CO)N2Cc1ccccn1	2	0
49	CN1C(=O)c2cc(NC(=O)c3cscn3)ccc2OC[C@@H]2O[C@H](CC(=O)N3CCCCC3)CC[C@@H]21	12	8
50	CC(C)NC(=O)Nc1ccc2c(c1)C(=O)N([C@H](C)CO)C[C@H](C)[C@H](CN(C)Cc1ccc(C(=O)O)cc1)OCCCC[C@@H](C)O2	-6	13
51	Cc1ccc(-c2ccc3c(c2)O[C@H](CN(C)Cc2cccc(C(=O)O)c2)[C@H](C)CN([C@H](C)CO)S3(=O)=O)cc1	-1	3
52	O=C(Nc1ccc(Cl)c(Cl)c1)N[C@H]1CC[C@@H](CCn2cc(C3CCCCC3)nn2)O[C@@H]1CO	-7	-11
53	CO[C@@H]1CN(C)C(=O)c2ccc(NC(=O)C3CC3)cc2OC[C@@H](C)N(C)C[C@@H]1C	2	9
54	C[C@@H]1CN([C@H](C)CO)C(=O)c2cccc(NC(=O)CCCCCC(=O)Nc3ccccc3N)c2O[C@H]1CN(C)Cc1ccc2c(c1)OCO2	-9	3
55	C[C@H](CO)N1C[C@H](C)[C@H](CN(C)C)Oc2cc(/C=C/c3ccccc3)ccc2S1(=O)=O	-15	-16
56	C[C@@H]1CN([C@@H](C)CO)C(=O)Cc2cc(NC(=O)C3CC3)ccc2O[C@@H]1CN(C)CC1CC1	3	5
57	C[C@@H]1CN([C@H](C)CO)C(=O)Cc2cc(NC(=O)NC3CCCCC3)ccc2O[C@H]1CN(C)C	9	23
58	O=C(NCC[C@H]1CC[C@H](NC(=O)c2cccnc2)[C@@H](CO)O1)Nc1ccc(F)cc1	1	2
59	C[C@@H]1CN([C@@H](C)CO)C(=O)c2cc(NC(=O)c3ccncc3)ccc2O[C@H]1CN(C)S(=O)(=O)c1ccc(F)cc1	-6	1
60	CCCNC(=O)N1C[C@H](C)[C@@H](OC)CN(C)C(=O)c2ccc(NC(C)=O)cc2OC[C@H]1C	9	0
61	COc1cccc(CN2CC3(CN(C(=O)Nc4c(C)noc4C)C3)c3c([nH]c4cc(OC)ccc34)[C@H]2CO)c1	-12	-10
62	CCNC(=O)C[C@@H]1CC[C@H]2[C@@H](COC[C@H](O)CN2C(=O)C2CCOCC2)O1	20	4
63	O=C(C[C@@H]1C=C[C@H](NC(=O)CC2CC2)[C@H](CO)O1)NCc1ccc(Cl)cc1	6	15
64	C[C@H](CO)N1C[C@H](C)[C@@H](CN(C)Cc2ccc(C(=O)O)cc2)Oc2c(NS(=O)(=O)c3ccc(Cl)cc3)cccc2C1=O	11	17
65	O=C(Nc1ccccc1)N1CCCCN2[C@H](CO)[C@H](c3ccc(C#CC4CC4)cc3)[C@@H]2C1	-34	-31
66	CS(=O)(=O)Nc1ccc2c(c1)[C@@H]1C[C@H](CC(=O)NCc3cc(F)ccc3F)O[C@H](CO)[C@@H]1O2	1	6
67	COCC#Cc1ccc2c(c1)O[C@H](CN(C)Cc1ccc(F)cc1)[C@H](C)CN([C@@H](C)CO)S2(=O)=O	.	?
68	C[C@H]1CN([C@@H](C)CO)C(=O)c2c(c3ccccc3n2C)-c2ccccc2CO[C@@H]1CN(C)Cc1ccc(Cl)c(Cl)c1	.	?
69	COc1ccc(S(=O)(=O)Nc2ccc3c(c2)C(=O)N([C@H](C)CO)C[C@@H](C)[C@H](CN(C)C(=O)NC(C)C)OCCCC[C@@H](C)O3)cc1	2	10
70	COc1ccc(NC(=O)Nc2ccc3c(c2)C(=O)N([C@H](C)CO)C[C@H](C)[C@H](CN(C)C)OCCCC[C@@H](C)O3)cc1	3	10
71	O=C(C[C@@H]1CC[C@H](NC(=O)C2CCC2)[C@H](CO)O1)Nc1nccs1	20	16
72	C[C@H](CO)N1C[C@H](C)[C@@H](CN(C)C(=O)C2CCC2)Oc2cc(-c3ccc(C(=O)N(C)C)cc3)ccc2S1(=O)=O	2	-1

# 2 entries from above in a different format.
(62) CCNC(=O)C[C@@H]1CC[C@H]2[C@@H](COC[C@H](O)CN2C(=O)C2CCOCC2)O1
(63) O=C(C[C@@H]1C=C[C@H](NC(=O)CC2CC2)[C@H](CO)O1)NCc1ccc(Cl)cc1
Screen / compound no.,62,63
Vaccinia stage Venus,20,6
Vaccinia stage,4,15

# Remaining list, next part
entry	mol	Vaccinia stage Venus	Vaccinia stage
73	O=C(C1CCC1)N1CCCCN2[C@@H](CO)[C@H](c3ccc(C#CC4CCCC4)cc3)[C@@H]2C1	-21	-26
74	CC(C)OC(=O)N(C)C[C@H]1OCc2cn(nn2)CCCC(=O)N([C@@H](C)CO)C[C@@H]1C	9&11	19&13
75	C[C@@H]1CN([C@H](C)CO)S(=O)(=O)c2ccc(/C=C/c3ccccc3)cc2O[C@@H]1CN(C)C(=O)c1cccnc1	-12	-19
76	C[C@@H]1CN([C@H](C)CO)S(=O)(=O)c2ccc(C3=CCCCC3)cc2O[C@H]1CN(C)C(=O)Cc1cccnc1	8&-4	31&8
77	C/C=C/c1ccccc1[C@@H]1[C@@H](CO)N(C(C)=O)[C@H]1C#N	4	15
78	O=C(c1cccnc1)N1C[C@H]2[C@@H](c3ccccc31)[C@H](CO)N2Cc1ccc2c(c1)OCO2	3	3
79	N#C[C@@H]1[C@@H](c2ccc(C3=CCCCC3)cc2)[C@@H](CO)N1C(=O)NC1CCCC1	.	?
80	CO[C@H]1CN(C)C(=O)c2ccc(NC(=O)C3CC3)cc2OC[C@H](C)NC[C@@H]1C	-4	-4
